Env fusion inh: HIV envelope-mediated fusion inhibition | inhibition, % at 12.3 µM | actives 1.1% (n = 360,000) | HeLa-JRFL Env/CEM21 cell fusion, luciferase;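 active means mean replicate inhibition score of at least 50 and every replicate individually at or above 50; inconclusive means only one of the two criteria met; inactive means mean below 50 and not all replicates reaching 50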;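 further: 0% = plate neutral controls and 100% = maraviroc near 300 nM; one replicate is shown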
Yeast UUG start: modulators of start codon recognition fidelity in yeast | S. cerevisiae UUG-firefly luciferase reporter, luminescence/redox ratio | AID 602363 | activity score, % at 18.7 µM | actives 0.13% (n = 350,000);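 active means replicate mean at a twofold rise or more, about +100% in these data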;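 further: firefly luciferase made from a UUG start codon reports start codon fidelity; reporter light over untreated wells divided by growth signal over untreated wells; some hits fall short of that in this replicate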
MT1-MMP act inh: blocks activation of human MT1-MMP; actives 0.061% (n = 360,000); GFP/RFP ratio change, % at 20 µM; HT1080 RFP-PRO-GFP cells, GFP/RFP ratio fluorescence, overnight; percent of plate control window, DMSO zero;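 active means GFP/RFP ratio change of at least 30% with cell ATP level not reduced by more than half and red fluorescence within 50% of control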; further: strong numbers were not always called active
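Test system: HT1080 cells expressing an RFP-PRO-GFP fluorescent reporter construct / Compound dosing: single-point 20 µM compound, 1% DMSO / Schedule: cells overnight before dosing, compound overnight, 37 °C, 5% CO2 / Evaluation: GFP/RFP fluorescence ratio / Control set: DMSO and RFP-L50D-GFP cell wells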
Rce1 inhib: inhibitors of yeast Ras-converting enzyme. actives 0.27% (n = 290,000). AID 2563. yeast membranes, quenched prenylated peptide cleavage fluorescence. Q03530. calls only;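 active means fall in fluorescence gain of 50% or more versus controls, with final raw signal at or below 3038400; inconclusive means same 50% fall but final raw signal above 3038400; inactive means fall in fluorescence gain under 50%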;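 further: plate controls were neutral control wells for no effect and wells lacking membranes for full effect; tested at 10 µM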
Target sequence (Q03530 whole entry, looked up): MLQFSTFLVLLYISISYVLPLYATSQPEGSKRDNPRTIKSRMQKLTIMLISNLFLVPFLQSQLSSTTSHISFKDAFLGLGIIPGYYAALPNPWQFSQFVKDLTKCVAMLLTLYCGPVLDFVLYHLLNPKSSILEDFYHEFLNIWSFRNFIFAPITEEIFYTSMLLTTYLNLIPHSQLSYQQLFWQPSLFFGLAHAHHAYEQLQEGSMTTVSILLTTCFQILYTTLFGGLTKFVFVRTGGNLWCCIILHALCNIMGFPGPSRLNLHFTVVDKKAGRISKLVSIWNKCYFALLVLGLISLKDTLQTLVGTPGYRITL
CSC inhib: blocks cancer stem cells; AID 2717; inhibition, % at 7.5 µM; cancer stem cell-like cells viability, luminescence; actives 1.1% (n = 300,000);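 active means mean at 75% or more and at least half the replicates too; inconclusive means mean and replicates disagree; tested in HMLE shEcad cells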;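 further: 0% = median of negative and 100% = median of positive control wells; the first replicate is given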
PABP FP inh: PABP-poly(A) binding inhibition | PABP-poly(A) RNA binding, fluorescence polarization | inhibition, % at 35 µM | actives 1% (n = 290,000) | AID 2014;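 active means 50% or more with normal probe brightness, or confirmed in later tests; inconclusive means above 50% with abnormal brightness, or retests that disagree; inactive means below 50% or failed in later tests; about a fifth of its hits are not listed in these tables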;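 further: calls also rest on retests at 20 µM and on dose response follow-up; controls were probe without protein and protein plus probe with vehicle; some compounds called inactive have numbers as strong as hits; many hits fall short of the cut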
eIF4H FP inh: inhibitors of RNA binding by human eIF4H. inhibition, % at 35 µM. AID 2012. actives 0.94% (n = 290,000). eIF4H fluorescence polarization binding assay. Q15056;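 active means 50% or more with normal probe brightness, or confirmed in later tests; inconclusive means above 50% with abnormal brightness, or retests that disagree; inactive means below 50% or failed in later tests; about a fifth of its hits are not listed in these tables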;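 further: calls also rest on retests at 20 µM and on dose response follow-up; 0% = protein and probe with vehicle and 100% = probe without protein; strong numbers were not always called active; many hits fall short of the cut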
eIF4H FP inh retest: also measured in eIF4H FP inh; calls as there; inhibition, %; compound at 20 µM; confirmation average;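 mean of two retest wells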
PABP FP inh retest: recorded beside PABP FP inh, whose call it bears; inhibition, %; compound at 20 µM; confirmation repeats;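 mean of two retest wells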
MT1-MMP act inh RFP: also measured in MT1-MMP act inh; calls as there; RFP signal change, %; measured here: RFP expression control read;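 0 = vehicle wells; hits needed this value within 50% of zero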
Starred values were filed as active, the others as inactive; i = inactive; ? = inconclusive; . = not tested or not shown; & = joins results of further samples; [ ] = another dose, or the depositor's remark.

SMILES	Env fusion inh	Yeast UUG start	MT1-MMP act inh	MT1-MMP act inh RFP	Rce1 inhib	CSC inhib	PABP FP inh	eIF4H FP inh	others
Cc1ccsc1C1C2=C(CC(C)(C)CC2=O)Nc2ncnn21 (configuration not stated)	10	-12	3	3	i	-5	-1	4
CCCS(=O)(=O)c1nc(S(=O)(=O)c2ccc(C)cc2)c(NCCCN2CCCC2=O)s1	-4	21	-2	1	i	-13	12	-12
CCN(CC)C(=O)Cn1cc(S(=O)(=O)CC(=O)NCc2ccccc2)c2ccccc21	-2	0	-1	-4	i	.	-2	0
CC(C)N(C(=O)c1ccc(Cc2cn(C)c3ccccc23)nc1)C(C)C	-14	-13	4	1	.	.	.	.
COC(=O)[C@@]1(C)CC[C@]2(C)CC[C@@]3(C)C(=CC(=O)C4[C@@]5(C)CC[C@H](O)C(C)(C)[C@@H]5CC[C@]43C)[C@H]2C1 (some centres not stated)	-2	13	5	1	i	-14	2	-11
Cc1ccc([N+](=O)[O-])cc1N=Nc1c(C)[nH]n(C(N)=S)c1=O	-14	-36	0	2	i	-21	2	-11
Cc1ccc(S(=O)(=O)NN2C(=O)c3ccccc3NC2c2ccccc2)cc1 (configuration not stated)	8	.	-4	-3	i	-9	0	-3
CCc1ccccc1NC(=S)N(CCOC)C(C)c1ccco1 (configuration not stated)	0	-23	2	4	i	-11	-2	3
Cc1cccc(C)c1NC(=O)CSc1nnc(-c2ccco2)n1N	-109	-10	1	0	i	-10	9	-1
O=C(CSc1ccc2nnc(-c3ccc(F)cc3)n2n1)NCC1CCCO1 (configuration not stated)	.	.	5	-1	i	-8	4	0
COc1ccc2c(c1)OC(=O)CC2c1cc(OC)c(OC)c(OC)c1 (configuration not stated)	-65	-13	6	0	.	.	.	.
Cc1nc2ccc(NC(=O)Cc3c(F)cccc3Cl)cc2s1	-30	.	0	0	i	-3	-8	-8
COC(CN(C(=O)CCl)C(C(=O)NC1CCCCC1)c1ccc(C)cc1)OC (configuration not stated)	-12	-11	-1	1	i	7	-9	0
CCc1nc(N(CC)CC)c2oc3ccccc3c2n1	.	-21	-7	2	i	-1	.	.
CCc1ccc(CCC(=O)Nc2ccc(Cl)cc2)o1	-14	-20	-1	-3	i	7	0	1
CCN1C(=C(C#N)C#N)C=Cc2ccccc21	4	-21	1	4	i	-13	20	10
CCOc1ccc(S(=O)(=O)Nc2ccc(S(=O)(=O)N3CCCC3)cc2)cc1	.	4	-4	0	i	16	-16	1
Cc1sc(/N=C/c2ccccc2O)c(C#N)c1C	.	.	.	.	i	-19	-6	-1
CCCCn1c(-c2ccccc2)cnc1SCC(=O)NCCc1ccc(OC)c(OC)c1	-11	.	1	-10	i	-6	1	-2
CCCc1nnc(NC(=O)CCN2C(=O)c3ccccc3C2=O)s1	4	-43	3	7	i	-13	-2	6
CC(C)N(C)C1CCN(S(=O)(=O)c2ccc(-c3ccc(=O)[nH]n3)s2)CC1	-1	-11	1	6	i	-5	-2	-6
COc1ccc(-n2c(SCC(N)=O)nnc2-c2ccc(NS(=O)(=O)c3ccc(C)cc3)cc2)cc1	-14	15	-2	-9	i	-8	-1	-4
CN(C)CCC#CC1(O)c2ccccc2-c2ccccc21	1	-2	-5	2	i	-9	-18	-2
Cc1coc2c1c(C)cc1oc(=O)c(CC(=O)N[C@@H](C)C(=O)O)c(C)c12	-19	7	3	5	i	0	-3	1
CC(C)OC(=O)c1cccc(C(=O)O)n1	-24	-6	4	4	i	.	29	2
Cn1nnnc1SCCNCc1ccc(Cl)cc1	-16	.	-1	5	i	-5	1	-5
COc1cccc(-c2nc(COc3ccc(Cl)cc3Cl)no2)c1	-26	.	2	0	i	20	-6	-2
O=C(Nc1ccccc1)C1=C[C@@H](C2CCCCC2)C[C@@H](OCc2ccc(CO)cc2)O1	-42[16.7 µM]	-8&-2	8	2	i	46	4	-1
O=C(Nc1ccc(Cl)cc1)Nc1ccccc1CC[N+](=O)[O-]	26	-6	1	-3	i	0	7	13
CCOC(=O)c1ccc(NC(=S)NN)cc1	-7	-18	-2	4	i	-8	-3	4
COc1ccc(Nc2nc(N)nc(CSc3nccn3C)n2)cc1	-5	.	2	5	i	.	70	90*	eIF4H FP inh retest=77*;PABP FP inh retest=36
CC12CC(NC(=O)N1c1cccc(C(=O)N3CCN(c4ccccc4F)CC3)c1)c1ccccc1O2 (configuration not stated)	6	12	1	-4	i	-8	-2	2
Cc1ccc(N2CC(NS(=O)(=O)c3cccs3)CC2=O)cc1C (configuration not stated)	-1	2	5	1	i	.	.	.
COc1cc2oc3cc(C#Cc4ccc(N)cc4)ccc3c(=O)c2cc1OC	?	-12	-20	-25	i	4	.	.
O=C(NCc1ccc(OC(F)(F)F)cc1)C1CC2Cn3c(nc4ccccc43)C2N1Cc1ccccc1 (configuration not stated)	1	-16	6	-7	i	-10	-9	-4
CN(C)CCN(Cc1ccccc1)S(=O)(=O)c1ccc2c(c1)n(C)c(=O)c(=O)n2C	-4	4	0	2	i	-14	-5	-3
COCCn1c(SCC(=O)Nc2ccc3c(c2)OCCO3)nnc1C(C)C	-13	-11	2	2	i	0	-10	-11
CC1(C)CC2c3cccc(C(=O)O)c3C(=O)N2c2c1ccc1ccccc21 (configuration not stated)	9	-13	0	-1	i	-13	-7	2
CCC1(C)Cc2c(sc(NC(=S)NC(=O)c3ccccc3)c2C#N)CO1 (configuration not stated)	2	.	-3	-1	.	44	8	4
COc1cc2c(-c3ccccc3O)nc3c(c(C)nn3-c3ccccc3)c2cc1OC	.	-20	4	2	i	3	1	-2

By substructure, the compounds so far containing a COOH group.
SMILES	Env fusion inh	Yeast UUG start	MT1-MMP act inh	MT1-MMP act inh RFP	Rce1 inhib	CSC inhib	PABP FP inh	eIF4H FP inh	others
Cc1coc2c1c(C)cc1oc(=O)c(CC(=O)N[C@@H](C)C(=O)O)c(C)c12	-19	7	3	5	i	0	-3	1
CC(C)OC(=O)c1cccc(C(=O)O)n1	-24	-6	4	4	i	.	29	2
CC1(C)CC2c3cccc(C(=O)O)c3C(=O)N2c2c1ccc1ccccc21 (configuration not stated)	9	-13	0	-1	i	-13	-7	2

(continued)
SMILES	Env fusion inh	Yeast UUG start	MT1-MMP act inh	MT1-MMP act inh RFP	Rce1 inhib	CSC inhib	PABP FP inh	eIF4H FP inh	others
Cc1cc(NC(=O)c2ccc3c(c2)OCO3)no1	-41	.	-3	2	i	0	3	-2
CCOc1cc(/C=C2\SC(=Nc3ccc(CC)cc3)NC2=O)ccc1OCC(=O)O	12	.	3	4	i	14	16	-5
CC(NS(=O)(=O)c1ccccc1)C(N)=O (configuration not stated)	8	-13	-12	0	i	-9	-19	-2
O=C(NC(=S)N1CCN(c2nc(-c3ccccc3)cs2)CC1)c1cccnc1	5	-5	0	1	i	8	2	16
CC(=O)N1CCc2cc(S(=O)(=O)NC(Cc3ccccc3)C(=O)O)ccc21 (configuration not stated)	-1	-13	-2	1	i	0	.	.
O=C1CCN(Cc2ccc(Br)cc2)CCN1CCO	-24	-23	4	2	i	8	-6	-16
CC(C)(C)OC(=O)NCc1ccc(CNC(=O)c2ncn(Cc3ccccc3)c2C(=O)NCc2ccc(CNC(=O)OC(C)(C)C)cc2)cc1	-7	-18	5	-3	.	-13	.	.
Cc1cccc(NC(=S)NNC(=O)c2ccc3c(c2)OCO3)c1	-33	.	6	9	i	-11	-4	2
Cn1cc(S(=O)(=O)N2CCOCC2)cc1C(=O)Nc1ccc(Cl)cc1	-12	-9	.	.	i	-13	3	-10
COc1ccc(N=c2scc(C)n2CCCN2CCCC2=O)cc1	11	.	-2	2	i	-13	6	0
COc1cc(C(=O)NCCN=C2NS(=O)(=O)c3ccccc32)cc(OC)c1OC	-32	-9	3	0	i	7	-7	-1
CCC(CC)NC(=O)Cc1ccc(S(=O)(=O)N2CCOCC2)s1	-53	-7	-6	1	i	-24	25	13
Cc1cc(C)nc(OC(C(=O)O)C(OCc2ccccc2)(c2ccccc2)c2ccccc2)n1 (configuration not stated)	3	-20	-2	-1	i	-2	0	12
Cc1ccc(CN2CCC(c3cc(-c4ccc(Cl)cc4)n[nH]3)CC2)cc1	11	.	5	-4	i	30	-3	2
Cc1cc(C)nc(NC(=O)C2c3ccccc3Oc3ccccc32)n1	10	.	-2	-4	i	3	0	1
Cc1cccc(-n2c(O)c(C=Nc3ccc(O)cc3)c3ccccc3c2=O)n1	-11	.	-3	2	i	-12	-5	6
CC(C)C[C@@H](CSc1ccccc1)N1CCN(CC(C)C)CCC1=O	-9	-13	0	2	i	-6	-5	-8
CC(=O)Nc1ccc(C2=NNC(=Nc3cccc(S(=O)(=O)N(C)C)c3)SC2)cc1	.	.	2	1	.	38	8	92	eIF4H FP inh retest=38;PABP FP inh retest=41
CC1CN(C(=O)CCS(=O)(=O)c2ccccc2)CC(C)O1 (configuration not stated)	?	-6	-1	1	i	2	-2	-2
Cc1ccc(C2(c3ccccc3)NC(=O)N(CC(=O)N(C)C3CCS(=O)(=O)C3)C2=O)cc1C (configuration not stated)	11	-22	1	2	.	.	.	.
CC(C)CC(=O)c1c[nH]c(C(=O)N2CCN(Cc3ccccc3)CC2)c1	4	.	4	8	i	-6	1	8
CCOc1ccc(-n2c(CCc3ccccc3)n[nH]c2=S)cc1	-3	.	1	1	i	-11	-4	-2
NC(=O)c1ccccc1NS(=O)(=O)c1ccc2c(c1)OCCO2	-19	3	1	-4	i	-7	-1	1
CCOc1cc(C(=O)N/N=C/c2ccoc2)cc(OCC)c1OCC	6	-9	-1	0	i	-2	-1	0
Cc1ccccc1SCC(=O)NCC1(N2CCCCC2)CCCCC1	-2	-14	2	5	.	.	.	.
O=C(Nc1cccc(Cl)c1)OC1CCCCc2cccnc21 (configuration not stated)	13	.	-2	-4	i	-5	1	-10

Structural class, the compounds so far with a Cl atom.
SMILES	Env fusion inh	Yeast UUG start	MT1-MMP act inh	MT1-MMP act inh RFP	Rce1 inhib	CSC inhib	PABP FP inh	eIF4H FP inh	others
Cc1nc2ccc(NC(=O)Cc3c(F)cccc3Cl)cc2s1	-30	.	0	0	i	-3	-8	-8
COC(CN(C(=O)CCl)C(C(=O)NC1CCCCC1)c1ccc(C)cc1)OC (configuration not stated)	-12	-11	-1	1	i	7	-9	0
CCc1ccc(CCC(=O)Nc2ccc(Cl)cc2)o1	-14	-20	-1	-3	i	7	0	1
Cn1nnnc1SCCNCc1ccc(Cl)cc1	-16	.	-1	5	i	-5	1	-5
COc1cccc(-c2nc(COc3ccc(Cl)cc3Cl)no2)c1	-26	.	2	0	i	20	-6	-2
O=C(Nc1ccc(Cl)cc1)Nc1ccccc1CC[N+](=O)[O-]	26	-6	1	-3	i	0	7	13
Cn1cc(S(=O)(=O)N2CCOCC2)cc1C(=O)Nc1ccc(Cl)cc1	-12	-9	.	.	i	-13	3	-10
Cc1ccc(CN2CCC(c3cc(-c4ccc(Cl)cc4)n[nH]3)CC2)cc1	11	.	5	-4	i	30	-3	2
O=C(Nc1cccc(Cl)c1)OC1CCCCc2cccnc21 (configuration not stated)	13	.	-2	-4	i	-5	1	-10

An excerpt; the hit share may differ from the screen's.
